rRNA inh HTS: inhibits bacterial ribosomal RNA function over humanized ribosomes. 350,000 tested, 1.6% active. E. coli WT GFP vs humanized-ribosome RFP mutants, fluorescence, 24 h; hits give low values; DMSO median 0, no signal -100. GFP signal change (wild-type ribosome), % (concentration not given with the values);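 active = significant combined selectivity score with lowered wild-type GFP, culture density cut under 30%, mutant RFP and density less affected; inactive = any of these conditions unmet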; note: one replicate is shown; some compounds called inactive have numbers as strong as hits
ALR inh: blocks human ALR sulfhydryl oxidase activity | P55789 | purified ALR, DTT oxidation, H2O2 HRP-luminol luminescence | inhibition, % (concentration not given with the values) | 290,000 tested, 3.8% active;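 active = mean and each replicate at 75% or more; inconclusive = only one of the two met; inactive = neither met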;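 note: stock transfer was 7.5 nL into about 7.5 µL; 0% = neutral wells and 100% = wells with inactivated enzyme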
Target sequence (P55789 whole entry, looked up): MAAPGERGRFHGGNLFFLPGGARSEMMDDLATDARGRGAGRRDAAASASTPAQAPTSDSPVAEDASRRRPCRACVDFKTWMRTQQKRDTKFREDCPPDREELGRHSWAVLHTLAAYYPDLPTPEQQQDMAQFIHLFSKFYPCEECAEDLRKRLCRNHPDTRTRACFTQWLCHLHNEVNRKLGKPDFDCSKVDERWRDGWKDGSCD
MLL AF4-AF9 inh: inhibitors of human MLL-AF4/AF9 interaction; P42568; AlphaScreen, biotin-AF4 peptide binding to FLAG-AF9; inhibition, % at 10 µM; 350,000 tested, 0.47% active; AID 651704;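 active = every replicate reaching a set inhibition limit, whatever the replicate mean, cut at about 25% in these data; inconclusive = mean inhibition reaches that limit but some replicates miss it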;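 note: 0% = plate neutral control median and 100% = total signal loss; the record names both 10 and 1 µM as test concentration; the first replicate is given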
Target sequence (P42568 whole entry, looked up): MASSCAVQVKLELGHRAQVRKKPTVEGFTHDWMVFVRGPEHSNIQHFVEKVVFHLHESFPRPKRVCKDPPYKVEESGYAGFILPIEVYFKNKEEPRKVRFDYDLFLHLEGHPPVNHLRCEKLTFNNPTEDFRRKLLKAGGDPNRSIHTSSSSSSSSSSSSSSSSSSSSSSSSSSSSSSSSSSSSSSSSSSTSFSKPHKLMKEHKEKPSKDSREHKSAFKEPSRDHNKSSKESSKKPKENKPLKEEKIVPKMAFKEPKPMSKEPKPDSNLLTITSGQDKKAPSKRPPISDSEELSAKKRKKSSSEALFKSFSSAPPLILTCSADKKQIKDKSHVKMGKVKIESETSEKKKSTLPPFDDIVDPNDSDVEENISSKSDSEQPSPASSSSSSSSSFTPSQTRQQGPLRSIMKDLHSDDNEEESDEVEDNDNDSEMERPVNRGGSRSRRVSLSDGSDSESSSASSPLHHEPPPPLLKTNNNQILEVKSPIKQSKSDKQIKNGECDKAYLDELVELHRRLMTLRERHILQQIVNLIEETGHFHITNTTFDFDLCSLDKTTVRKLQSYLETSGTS
T cruzi repl: blocks replication of Trypanosoma cruzi; T. cruzi beta-gal in NIH3T3, luminescence, 90 h; inhibition, % (no concentration beside the values); 300,000 tested, 1.4% active; AID 1885;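 active = mean inhibition across valid replicates above about 55%, limit read from the data; inconclusive = mean below that limit but half or more replicates reach it; inactive = mean below it, under half of replicates reach it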;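 note: signal also drops with host cell toxicity which is not excluded here; 0% = plate median of DMSO wells and 100% = zero luminescence signal; higher percent means less beta-gal luminescence so fewer parasites; stock transfer was 50 nL into about 50 µL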
Calb FLC: affects C. albicans growth with fluconazole. C. albicans CaCi-2 (fluconazole-resistant clinical isolate) + fluconazole, Alamar Blue growth, 48 h. 300,000 tested, 0.57% active. AID 1979. growth inhibition, % (test concentration not listed);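 active = most replicates above 75%; inconclusive = exactly half above 75%; inactive = most below 75%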;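 note: all wells also contain fluconazole at 8 µg/ml as a sub-toxic cotreatment; 0% = median of DMSO wells and 100% = median of geldanamycin control wells; wells of about 8 µL received 7.5 nL stock; the first replicate is given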
RanGTP-Imp inh: disruptors of Ran-importin-beta complex formation – biochemical, FRET, CFP-Ran, YFP-importin-beta, homogeneous, primary screen; cell-free CFP-Ran/YFP-importin-beta FRET ratio; 300,000 tested, 1.1% active; AID 2216; inhibition, % (concentration not given with the values);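 active = most replicates above 15%; inconclusive = exactly half above 15%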;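 note: 0% = DMSO wells and 100% = Ran loaded with GDP instead of GTP; wells of about 40 µL received 100 nL stock; the first replicate is given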
Beta cell apopt: beta cell apoptosis inhibition; INS-1E cytokine-induced death, ATP luminescence, 48 h; percent of positive-control rescue, neutral wells zero; protection from apoptosis, % (test concentration not listed); 300,000 tested, 0.8% active;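 active = all replicates at 75% or more, or half of them and the mean; inconclusive = half reach 75% but not the mean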;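 note: 0% = cytokine-treated negative control wells and 100% = positive control rescue; higher means more ATP so stronger rescue from cytokine killing; wells of about 40 µL received 100 nL stock; the first replicate is given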
FGF22 binding: shifts melting point of recombinant human FGF22. Q9HCT0. recombinant FGF22 thermal shift, SYPRO orange fluorescence; percent of sucrose octasulfate shift, DMSO zero. calls only at 9.99 µM. 340,000 tested, 1.5% active;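 active = melting point raised past a set limit in the mean and every replicate; inconclusive = no clear call; three in four hits are not shown here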
Target sequence (Q9HCT0 whole entry, looked up): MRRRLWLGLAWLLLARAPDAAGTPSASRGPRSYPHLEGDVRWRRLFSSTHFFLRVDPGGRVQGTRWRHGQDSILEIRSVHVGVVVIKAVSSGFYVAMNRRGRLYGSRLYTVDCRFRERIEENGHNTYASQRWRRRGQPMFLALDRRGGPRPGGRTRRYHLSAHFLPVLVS
rRNA inh HTS OD600: further read-out of rRNA inh HTS, marked with its call; OD600 change, %; measured here: OD600 growth;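 optical density of the mix in the first replicate; 0 = DMSO median and -100 = no signal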
rRNA inh HTS RFP: further read-out of rRNA inh HTS, marked with its call; RFP signal change, %; measured here: RFP humanized mutant strains;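 first replicate; 0 = DMSO median and -100 = no signal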
* hit, by the source's call; i = inactive; ? = inconclusive; / = no result given.

SMILES,RanGTP-Imp inh,FGF22 binding,rRNA inh HTS,Beta cell apopt,rRNA inh HTS OD600,ALR inh,Calb FLC,T cruzi repl,MLL AF4-AF9 inh,rRNA inh HTS RFP
O=C(O)c1cc2c(ccc3ccccc32)o1,-1.2,i,-5,-5,-4,-14,1,4,3.0,-0.4
O=C(COc1ccccc1)Nc1cccc2nsnc12,-4.9,/,2,-1,6,-17,-6,1,/,-4.3
Cn1c(=O)c2c(ncn2CC(=O)N2CCN(c3cccc(Cl)c3)CC2)n(C)c1=O,6.7,/,/,3,/,5,3,-4,/,/
CCOc1cc(/C=C/C(=O)OCC(=O)NCc2ccco2)cc(Cl)c1OC,0.9,i,-20,-1,-26,9,-5,-10,1.4,-5.0
COc1ccc(S(=O)(=O)Nc2cc3c(cc2C(C)=O)OCO3)cc1,0.0,i,-17,3,-18,-6,?,-7,2.2,1.0
COc1ccc(C(=O)Oc2ccc3oc(=O)sc3c2)cc1,1.4,/,/,-10,/,-9,1,9,/,/
COC(=O)CSc1nc(N2CCOCC2)c2c(c1C#N)CC(C)(C)OC2,1.0,i,8,2,8,9,6,3,0.3,0.6
O=C(O)CSc1nccc2ccccc12,-2.1,/,5,3,-5,-24,-5,-2,-3.1,2.8
CCOC(=O)C1CCCN(C(=O)c2cc3c(OC)c(OC)c(OC)cc3[nH]2)C1 (stereo not given),0.0,i,-3,-6,-2,-6,-2,-3,1.2,-1.3
Cc1cc(C)n(-c2nc3sc4c(c3c(=O)[nH]2)CCCC4)n1,-1.0,/,/,50,/,-10,-25,-8,/,/
O=C(C[n+]1cc(-c2ccc(F)cc2)n2c1CCC2)OCc1ccccc1,?,/,/,-1,/,-13,-1,16,/,/
Cc1cc(N2CCN(c3ccc(C(F)(F)F)cc3[N+](=O)[O-])CC2)c2ccccc2n1,0.9,i,-40,15,-71,-9,39,49,20,-17
CC(=O)c1ccc(N2C(=NC(=O)C3CCCO3)SC3CS(=O)(=O)CC32)cc1 (stereo not given),-1.1,i,6,0,5,2,-4,-17,1.5,-2.6
COc1ccc(C(=O)OCc2csc(C)n2)c(O)c1,3.5,i,-13,-1,-7,11,-6,1,-2.0,1.1
CC(OC(=O)CSc1ccc([N+](=O)[O-])cc1)C(=O)NCc1ccco1 (stereo not given),/,i,0,-2,3,-5,1,0,-0.6,0.5
CCOC(=O)CNC(=O)c1ccc(SCC)cc1,-1.0,i,8,/,8,-13,1,-3,1.3,1.4
CCOC(=O)N1CCN(C(=O)C(CC(C)C)NC(=O)C2CCCCC2)CC1 (stereo not given),-1.1,/,/,-7,/,39,-2,-14,/,/
O=C(O)/C=C/c1cn(-c2ncc(C(F)(F)F)cc2Cl)c2ccccc12,-1.2,/,/,/,/,42,8,-1,/,/
Cc1cc(C(=O)OCC(=O)Nc2cc(S(=O)(=O)N(C)C)ccc2C)c(C)o1,1.4,i,8,-3,10,-3,-9,2,-1.6,2.3
O=C(NC(=S)N1CCN(C/C=C/c2ccccc2)CC1)c1ccc(Cl)nc1,-0.2,i,-49*,/,-20*,-2,1,-24,2.6,-14*
CC(C)CCOC(=O)C1C(c2ccccc2)C(C(=O)O)C1c1ccccc1 (stereo not given),0.2,/,/,-1,/,2,93*,-8,/,/
Cc1ccc(CN2CCC(n3nccc3NC(=O)CCOc3ccccc3)CC2)cc1C,-2.6,i,-6,-2,-12,-43,-14,24,0.7,-1.5
Fc1ccc(/C=N/Nc2nc3ccccc3[nH]2)cc1F,2.3,i,-56,29,-54,69,?,9,3.2,-17
COc1ccccc1C/C(N)=N/OC(=O)COc1ccccc1C,5.1,i,-4,-1,-13,-5,-20,-2,9.5,0.2

The closing 2 records of the part above lead into the next.
SMILES,RanGTP-Imp inh,FGF22 binding,rRNA inh HTS,Beta cell apopt,rRNA inh HTS OD600,ALR inh,Calb FLC,T cruzi repl,MLL AF4-AF9 inh,rRNA inh HTS RFP
Fc1ccc(/C=N/Nc2nc3ccccc3[nH]2)cc1F,2.3,i,-56,29,-54,69,?,9,3.2,-17
COc1ccccc1C/C(N)=N/OC(=O)COc1ccccc1C,5.1,i,-4,-1,-13,-5,-20,-2,9.5,0.2
Cc1cc(=O)oc2n[nH]c(-c3ccccc3)c12,4.7,/,/,0,/,0,5,-10,/,/
CCc1nnc(NC(=O)c2cc(-c3ccco3)nc3ccccc23)s1,1.4,i,/,-5,/,-2,11,4,1.9,/
COc1ccc2oc(=O)c(C(=O)N3CCN(c4ccccc4F)CC3)cc2c1,0.8,/,/,0,/,-2,9,-5,/,/
CCCn1c(C)cc(C(=O)CSc2nc3nc(C)cc(C)n3n2)c1C,-0.7,i,5,-2,-2,50,-3,3,-17,-13
COC(=O)[C@H](CCSC)NC(=O)[C@@H](Cc1cnc[nH]1)NC(=O)OCc1ccccc1,1.3,i,0,-1,9,-8,-4,-3,0.3,-0.6
Cc1cc(C)c(OCC(=O)OCC(=O)N2CCCc3ccccc32)c(C)c1,?,i,6,-4,18,-36,0,-2,-3.0,0.2
O=C(NNc1cc(Br)c(O)c(Br)c1)c1ccccc1,-3.8,/,-27,-32,-23,99*,-33,54,1.1,-4.1
O=C1N/C(=C/c2ccc(N3CCOCC3)o2)C(=O)N1c1ccccc1,/,i,14,6,-1,66,/,/,-12,6.2
Cc1ccccc1NC(=O)C(=O)Nc1ccccc1C,0.9,i,16,5,13,2,-4,-3,-2.0,0.9
O=C1CCN(Cc2ccccc2)CCN1CCO,-0.9,i,20,-2,6,3,-2,-16,3.0,3.8
COc1ccc(N2CCC(CNC(=S)Nc3cc(C)ccc3C)C2)cc1 (stereo not given),0.4,i,-17,7,-8,65,-4,38,?,3.6
Cc1cc([N+](=O)[O-])ccc1N(C)C,1.0,/,/,0,/,-2,2,-29,/,/
O=C(NCCc1ccccn1)c1nc(Cn2ccc([N+](=O)[O-])n2)no1,-0.9,i,-7,5,9,-7,0,21,-0.1,-0.6
Cc1ccc(-n2ncc(C(=O)NCC3CCN(C4CCCC4)C3)c2C2CCN(C(=O)OC(C)(C)C)CC2)cc1C (stereo not given),1.9,i,2,7,6,0,8,14,6.7,7.0
O=C(N/N=C/c1ccccc1)c1ccco1,5.5,i,1,4,14,14,-2,-5,2.0,-0.8
COc1ccc(C(=O)Nc2cc(S(=O)(=O)N3CCCCC3)ccc2OC)cc1,/,i,5,-10,15,-13,/,/,0.2,-4.2
O=[N+]([O-])c1ccccc1-c1ccc(CN2CCN(c3ccccc3)CC2)o1,-0.4,i,-36*,-7,-27*,20,6,-17,4.5,-1.6*
CN(c1ccc(C(=O)N2CCN(Cc3ccc4c(c3)OCO4)CC2)cc1)S(=O)(=O)c1ccccc1,-1.6,/,/,0,/,-4,-15,11,/,/
CC(=O)Nc1ccc(NC(=O)COc2ccc(S(=O)(=O)NC(C)c3ccccc3)cc2)cc1 (stereo not given),4.7,i,11,-4,8,/,34,-2,-3.5,-1.5
C[C@@H]1CCC[C@]2(O[C@@H](CCO)C[C@@H](O)[C@@H]2O)O1,5.2,i,10,-3,14,-13,-5,5,0.8,2.6
CN(C)c1ccc(C(c2nnnn2C(C)(C)C)N2CCN(C(=O)c3ccco3)CC2)cc1 (stereo not given),0.6,/,/,/,/,90*,-5,-4,/,/
CCN1C(=O)c2cccc3c(S(=O)(=O)N(C(=O)c4cccnc4)c4ccc(OC)cc4)ccc1c23,5.9,/,/,4,/,-23,11,-12,/,/
Cc1cc(C)n(/N=C/c2cccc(O)c2)c(=O)c1C(N)=O,1.1,/,/,2,/,1,9,-5,/,/
COc1ccc(OC)c(NS(=O)(=O)c2cccs2)c1,-1.5,/,/,-7,/,-8,34,-3,/,/
CCc1nnc(NC(=O)[C@@H](NC(=O)c2cccc(S(=O)(=O)N3CCOCC3)c2)C(C)C)s1,-0.4,/,/,-1,/,-5,-4,-1,/,/
CCOC(=O)NCc1ccc2c(c1)cc(C)n2C,85*,/,/,8,/,-23,-9,1,/,/
O=C1/C(=C/c2ccccn2)SC(=S)N1Cc1ccccc1,0.5,i,12,0,8,-6,9,-22,-0.1,1.6
N#Cc1ccccc1-c1ccccc1C(=O)N1CCCCC1,-1.2,i,4,-1,0,-2,0,-8,1.7,-4.6
CCOc1ccccc1NC(=O)C(NC(=O)C1CCC(C)CC1)C(C)C (stereo not given),8.3,i,5,-3,5,-6,-11,2,2.7,9.2
CCOc1ccc(-c2nnn(CC(=O)N3CCCC3)n2)cc1OCC,-1.7,/,/,-2,/,0,-3,-3,/,/
CC(=O)Nc1cccc(OCCCNC(=O)c2ccc(C(C)(C)C)cc2)c1,-1.0,i,-2,2,2,-7,-12,6,-2.7,6.2
C=C(C)CNC(=S)N/N=C(\C)c1ccc(Cl)s1,2.8,i,-7,/,-6,-6,-4,24,-2.4,20
COc1ccccc1-c1nnc(SCC(=O)Nc2ccc(Cl)cc2Cl)o1,-3.0,/,/,1,/,-6,-19,13,/,/
CCNc1nc(N)nc(Oc2ccc(OCc3ccccc3)nn2)n1,-2.1,i,1,0,3,2,-4,2,-78,-5.3
O=C(NN=C1C2CC3CC(C2)CC1C3)c1cccs1,3.5,/,15,-6,13,2,2,1,/,0.6

Screening results deposited in PubChem by Broad Institute.

An excerpt (hit frequency here may not be typical).
